# Menin MLL FP FL: inhibitors of human menin-MLL interaction, wild-type MLL peptide; FP activity change, % at 61.4 µM; AID 1766; Fluorescence polarization, fluorescein-MLL peptide displacement from menin; 290,000 tested, under 10 active; inconclusive = falling polarisation curve, or a change in total fluorescence; inactive = total fluorescence flat and polarisation flat or rising; no compound was filed as active; the % refers to the polarisation; negative = inhibition;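 note: % of control where 0% means no effect; inhibitors lower the polarisation; unlabelled MLL peptide was the positive control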
# ClpP mod: qHTS Assay for Activators of ClpP | purified B. subtilis ClpP, FRET peptide cleavage, 20 min | Potency, µM (top dose mostly 57.5 µM), for the others: top-dose activity change, negative = active | ATP-dependent Clp protease proteolytic subunit (Bacillus subtilis (strain 168)), P80244 | 340,000 compounds, 1.9% hits; active = well fitted falling curve with a large enough effect; inconclusive = small, poorly fitted or top-dose-only effect; inactive = no such curve, though single readings can be large or run the other way; note: potency is the fitted concentration of half-maximal effect; the source files actives as falling curves though it sought activators and does not explain the sign; nearly all actives have a fitted effect of over 65% in size; many hits overshoot -100%
# Target sequence (P80244 whole entry, looked up): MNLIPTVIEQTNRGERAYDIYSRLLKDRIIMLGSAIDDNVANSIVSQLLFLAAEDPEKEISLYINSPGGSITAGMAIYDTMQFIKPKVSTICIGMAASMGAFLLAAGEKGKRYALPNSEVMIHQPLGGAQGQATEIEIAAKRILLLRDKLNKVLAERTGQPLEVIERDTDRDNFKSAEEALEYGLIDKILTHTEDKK
#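 ClpP 10 microg/mL final, pH 8 Tris/KCl buffer with BSA, glycerol, Tween-20; compound pinned in; FRET-FV substrate; RT 20 min; Ex320/Em430; ΔFRET vs ADEP 5.8 microM, DMSO, no enzyme.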
# Sfp PPTase inh: inhibitors of Bacillus subtilis Sfp phosphopantetheinyl transferase; Q9F4F7; Biochemical Sfp PPTase activity, qHTS; Potency, µM, for inactives: max response, negative = inhibition, hits mostly inhibitors; 310,000 compounds, 3.5% hits; active = well fitted inhibition curve with a large enough effect; inconclusive = small, poorly fitted or top-dose-only effect, or another doubt; inactive = no such curve, though single readings can be large or run the other way;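 note: the enzyme is Sfp with the accession as filed and its product quenches rhodamine fluorescence; potency is the fitted concentration of half-maximal effect; 0% = enzyme reaction without inhibitor and -100% = no enzyme wells; top concentration of the series not given in the record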
#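 Compounds were incubated with enzyme (final 15 nM) for 15 min at room temperature before substrate addition started the reaction. Fluorescence at 525 nm excitation, 598 nm emission was recorded immediately and after 30 minutes.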
# PINK1 expr mod: PINK1 expression modulation; PINK1 immunofluorescence, high-content cytometry, 24 h; Potency, µM (top dose mostly 76.6 µM), without a hit: at the highest dose activation (PINK1 increase), hits mostly activators; 410,000 compounds, 0.2% hits; active = well fitted activation curve with a large enough effect; inconclusive = small, poorly fitted or top-dose-only effect; inactive = flat fitted curve, though single readings scatter; cell line not stated here;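 note: potency is the fitted concentration of half-maximal effect; % of control where 0% means no effect; nearly all actives have a fitted effect of over 65% in size; a mitochondrial uncoupler was the plate control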
#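 Measures PINK1 amount and localization on or inside mitochondria by immunofluorescence. Stable cells get compounds at 5 concentrations for 24 hours before fixation and staining; CCCP controls included.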
# TRPV1 PAM: human TRPV1 potentiation. TRPV1-expressing cells, Fluo-8 calcium influx, capsaicin EC20 potentiation; host cell line not named in the record; control for the full effect not named in the record. potentiation, % at 8.33 µM. 320,000 compounds, 0.02% hits; active means potentiation above 80%; inconclusive means 30% to 80%; inactive means below 30%; note: 0% is about no effect
# Target sequence (Q8NER1 whole entry, looked up): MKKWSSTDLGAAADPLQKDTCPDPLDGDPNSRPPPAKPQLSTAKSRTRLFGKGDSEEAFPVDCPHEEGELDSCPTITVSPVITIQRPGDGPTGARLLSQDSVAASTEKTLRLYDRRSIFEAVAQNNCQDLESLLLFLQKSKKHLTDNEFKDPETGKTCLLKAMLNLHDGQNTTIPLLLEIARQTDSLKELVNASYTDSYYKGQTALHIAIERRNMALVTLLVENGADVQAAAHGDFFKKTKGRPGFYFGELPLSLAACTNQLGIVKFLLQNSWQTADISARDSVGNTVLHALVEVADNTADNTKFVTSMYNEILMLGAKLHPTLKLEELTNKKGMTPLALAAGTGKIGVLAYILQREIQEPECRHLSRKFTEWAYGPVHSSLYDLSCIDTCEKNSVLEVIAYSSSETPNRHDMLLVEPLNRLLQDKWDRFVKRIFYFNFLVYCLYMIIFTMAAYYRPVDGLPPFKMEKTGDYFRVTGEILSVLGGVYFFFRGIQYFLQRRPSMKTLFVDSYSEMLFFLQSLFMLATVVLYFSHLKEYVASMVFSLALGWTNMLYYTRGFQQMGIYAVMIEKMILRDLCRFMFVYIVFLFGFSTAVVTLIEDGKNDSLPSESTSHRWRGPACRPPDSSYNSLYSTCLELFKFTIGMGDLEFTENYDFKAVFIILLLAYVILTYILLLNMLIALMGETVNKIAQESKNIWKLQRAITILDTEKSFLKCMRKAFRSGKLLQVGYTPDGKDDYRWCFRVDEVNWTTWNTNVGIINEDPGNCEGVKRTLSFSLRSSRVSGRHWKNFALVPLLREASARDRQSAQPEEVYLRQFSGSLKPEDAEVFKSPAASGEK
#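 TRPV1-expressing cells were cultured overnight at 35.5C and loaded with Fluo-8 calcium dye for 40 to 90 min at room temperature. After a 10 s baseline, compound was added and calcium influx was read kinetically for 3 min (ex 480/em 520 nm).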
# TRPML1 blocker: inhibitors of human TRPML1 channel; Q9GZU1; TRPML1-inducible cells, Ca2+ dye fluorescence, FDSS; stronger effect = lower value; inhibition of EC80 agonist-evoked calcium signal; activity change, negative = inhibition, % (no concentration beside the values); 390,000 compounds, 0.02% hits; AID 624415; in the data active means activity change below about -50%; inconclusive means about -30% to -50%; inactive means above about -30%;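 note: stimulus is agonist 54-4 at its EC80 concentration; % is set by controls: 0 for no effect and ±100 for the full control effect; compound concentration not given in the record; the text of the record puts the active cut at -80%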
#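 Tet-induced TRPML1-DL cells loaded with Ca8 no-wash calcium dye were read kinetically on FDSS. Compound addition was followed by EC80 agonist 54-4 (4 uM final); inhibition was read over 110 s.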
# TRPML1 ag: human mucolipin-1 channel agonism | 410,000 compounds, 0.12% hits | TRPML1-expressing cells, Ca2+ dye fluorescence, FDSS; host cell line not named in the record; reference of the full effect not given here | Q9GZU1 | activation, % (concentration not given with the values); in the data active = activation above about 50%; inconclusive = about 30% to 50%; inactive = below about 30%; note: 0% is about no effect; the text of the record puts the active cut at 80%
#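 Agonist activity was taken from a 110 s kinetic Ca2+ dye read on the FDSS after pinning compounds onto TRPML1-DL cells. The cells were seeded at 1,500/well with Tet inducer, incubated about 16 h, then dye-loaded at room temperature.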
# An asterisk follows results filed as active; ? = inconclusive; nt = not tested or not shown; & = joins results of further samples; [ ] = dose if it differs, or a comment. The order is random. Share with any hit: about 4.4%.
SMILES,Menin MLL FP FL,ClpP mod,Sfp PPTase inh,PINK1 expr mod,TRPV1 PAM,TRPML1 blocker,TRPML1 ag
COC(=O)CCC(=O)NC(=S)Nc1ccc(S(=O)(=O)N2CCCC2)cc1,-7.1,0.4%,6.2%,-0.3%,-16.4,-5.1,0.3
CCCC12CN3CCN(CC(C3)/C1=N\NC(=O)c1ccccc1N)C2,0.1,-1.0%,1.8%,-2.0%,11.4,8.1,0.0
O=C(Nc1ccnn1C1CCN(CCCc2ccccc2)CC1)c1ccccc1,nt,?,7.3%,0.8%,-1.5,18.7,1.0
NC(=O)C1CCN(C(=O)c2ccc(Cl)c(S(=O)(=O)N3CCc4ccccc43)c2)CC1,nt,-1.1%,nt,0.3%,nt,2.3,-0.1
Cc1ccc(Cn2ncn3c(cc4ccccc43)c2=O)cc1,2.0,?,0.2%,0.2%,-4.8,-0.6,-0.7
C=CCSc1nnc(-c2cc(Br)ccc2N)c(=O)[nH]1,0.4,-4.2%,-0.6%,3.8%,15.3,2.0,-0.6
CCCn1c(=O)c2c(nc(Br)n2CCC)n(C)c1=O,0.9,-2.2%,2.7%,-1.9%,-3.1,27.6,0.5
COc1ccc([C@@H]2[C@@H]3C(=O)N(C(C)(C)C)C(=O)[C@@H]3[C@]3(Cc4ccccc4)C(=O)N(c4ccc(Br)cc4)C(=O)N23)cc1,-8.1,-10.7%,10.5%,3.4%,16.8,-14.2,0.2
Cc1cn2c(=O)cc(COC(=O)COc3ccc(C)c(C)c3)nc2s1,nt,1.4%,nt,-1.7%,nt,-6.6,-0.8
CCc1ccc(C2c3c(oc4cc(C)c(C)cc4c3=O)C(=O)N2c2nc(C)c(C(=O)OC)s2)cc1 (centres undefined),nt,-12.7%,nt,0.0%,nt,-6.9,-0.7
COC(=O)CN1C(=O)CSc2ccc(S(=O)(=O)Nc3cccc(C)c3)cc21,nt,-0.2%,nt,3.0%,nt,-16.4,1.9
Cc1ccc2c(c1)sc1nc(=O)n(-c3cccc(Cl)c3)c(=O)n12,-1.9,1.2%&4.2%,6.1%,0.3%&14.2%,-7.1,6.8&5.6,-0.6&0.0
CCCc1ccc(C(=O)NNc2ccc(F)cc2)cc1,-1.8,nt,-8.6%,-1.3%,-4.0,-21.1,-0.5
CCOC(=O)C(NC(=O)C1CCCN1C(=O)OCc1ccccc1)C(=O)OCC (centres undefined),-0.1,-2.9%,21.8%,3.8%,3.8,-11.6,1.1
CSc1cccc(NC(=S)N(Cc2ccccc2)Cc2cccnc2)c1,-1.1,nt,13.6%,-0.1%,-11.4,8.0,0.5
O=C(c1ccccc1)N1CN2CN(C(=O)c3ccccc3)CC([N+](=O)[O-])(C2)C1,5.8,-0.8%,14.9%,4.2%,0.6,39.0,-0.2
N#Cc1ccc(Oc2cc(C(F)(F)F)nc(-c3ccccn3)n2)cc1,3.4,-0.5%,22.4%,11.0%[38.3 µM],6.6,2.3,0.1
CCOC(=O)C1(C)CCN1C(=O)c1ccc(OC)c(OC)c1 (centres undefined),nt,1.4%,nt,-0.2%,nt,nt,-0.5
CCC(C)(O)c1[nH]c2ccc(C(F)(F)F)cc2c1C (centres undefined),0.2,-22.0%,20.8%,19.1%,-18.4,3.9,-0.9
O=C1CC2(CCCC2)C(=O)N1CN1CCN(S(=O)(=O)c2ccc(Cl)c(Cl)c2)CC1,nt,-4.0%,nt,-0.9%,7.9,9.2,0.3
S=C(Nc1ccccc1Cl)N1CCCCC1,nt,-0.9%,11.8%,2.8%,3.0,30.7,-0.4
Cc1ccc(NC2=CC(c3ccccc3F)N(c3ccc(C)cc3)C2=O)cc1 (centres undefined),nt,?,nt,0.9%,nt,6.7,-0.9
CC1=CC(C)C2C(=O)N(O)C(=O)C2C1 (centres undefined),0.2,-5.3%,11.8%,1.1%,7.9,27.1,1.5
CCOC(=O)CSc1nc2c(cnn2-c2ccc(C)cc2)c(=O)[nH]1,5.7,-2.1%,-5.4%,0.1%,nt,11.4,1.9
O=C(Nc1ccc2oc(-c3ccc4ccccc4c3)nc2c1)c1cccs1,-1.3,3.55µM*,24.0%,4.0%,1.1,9.3,0.2
# Later entries
SMILES,Menin MLL FP FL,ClpP mod,Sfp PPTase inh,PINK1 expr mod,TRPV1 PAM,TRPML1 blocker,TRPML1 ag
CCc1ccc(-n2nc(C)c3c(C)cc(=O)n(Cc4nc(-c5ccccc5)oc4C)c32)cc1,nt,-6.7%,nt,1.5%,nt,19.5,1.0
CC1CCCCC1NC(=O)C(C)N1C(=O)c2ccccc2C1=O (centres undefined),nt,2.3%,nt,-0.1%,1.6,-6.0,-0.2
O=C(O)Cc1sc(N/N=C\c2ccccc2)nc1-c1ccccc1,?,nt,39.8µM*,0.7%,-0.7,4.6,0.5
O=C(NNc1nc(-c2ccccc2)cs1)c1cccs1,3.6,nt,?,2.3%,10.2,3.3,0.9
O=C(COC(=O)c1cc(S(=O)(=O)N2CCCC2)ccc1O)NCCc1ccccc1,nt,4.7%,nt,0.4%,17.5,-4.4,0.0
Cc1ccc(NC(=O)CSc2nnc(-c3ccccc3)n2C)cc1,nt,2.7%,nt,-0.4%,nt,nt,-1.2
C=CCOc1c(Br)cc(CNc2ccc(NC(=O)CCC)cc2)cc1OCC,-2.5,7.9%,5.5%,-0.6%,4.2,6.5,2.1
Cc1cc(C)c(/C=C/c2onc(C)c2S(=O)(=O)N2CCC(C(=O)NCc3ccccc3Cl)CC2)c(C)c1,nt,-6.2%,nt,0.0%,nt,29.1,-0.4
CC(C)(C)c1ccc(S(=O)(=O)N2CCC(O)(c3ccc(Cl)cc3)CC2)cc1,3.5,-0.2%,16.1%,?,-1.5,1.2,0.6
O=C1CCCN1c1ccc(N2CCCC2=O)cc1,-1.4,-4.0%,21.5%,1.5%,-12.9,-7.5,0.7
CC(=O)Nc1cccc(N=NN2CCCCC2)c1,2.0,nt,16.2%,0.2%,1.0,-14.4,0.3
COc1ccc(NC(=O)c2ccc(NC(=O)CN3CCN(c4ccc(O)cc4)CC3)cc2)cc1,nt,-0.7%,nt,0.1%,nt,-0.1,1.9
O=C(c1ccccc1[N+](=O)[O-])N(CCc1ccccc1)Cc1ccccc1,nt,-2.9%,9.7%,0.6%,26.3,-4.2,1.0
Clc1cccc(-c2nc3nc4ccccc4nc3n2Cc2ccccc2)c1,-0.3,?,-10.8%,12.0%,-4.2,-5.4,-0.4
CN(c1ccc(Cl)cc1)c1cc2c(c3c1ccn3C)C1CCC2C1 (centres undefined),nt,-24.0%,nt,14.9%,nt,-3.4,-0.3
CS(=O)(=O)N(CC(=O)N1CCCCCC1)Cc1ccc(Cl)cc1,-1.9,0.3%,13.2%,-5.4%[38.3 µM],10.7,-5.3,0.7
Cc1ccc(C2N(c3ccc(Cl)cc3)C(=O)N3CCCN23)cc1 (centres undefined),2.2,nt,12.2%,-0.6%,-26.0,11.5,1.0
CCN(C(=O)CSc1nnnn1-c1ccccc1OC)C1CCS(=O)(=O)C1 (centres undefined),nt,1.3%,nt,7.8%,-12.0,6.6,-0.3
CNc1c(N)n(Cc2ccccc2)c(=O)[nH]c1=O,?,-10.1%,-5.9%,5.3%,-14.9,18.4,3.4
CC(C)NC(=O)NC(=O)CSc1ncc(C(F)(F)F)cc1Cl,2.1,0.1%,-9.1%,6.9%[38.3 µM],8.6,4.2,0.8
O=C(CSc1nnnn1-c1ccccc1)NCCCN1CCCC1=O,nt,nt,nt,-0.1%,nt,-6.0,0.5
Cc1cccn2c(=O)c3cc(C(=O)NCC4CCCO4)c(=N)n(C4CCCC4)c3nc12 (centres undefined),-3.0,nt,12.9%,0.2%,-10.2,-8.6,-0.8
Cn1c(C(C(=O)NCC2CCCO2)N(CCc2ccccc2)C(=O)Cn2nnc3ccccc32)nc2ccccc21 (centres undefined),-1.0,3.6%,-0.5%,0.0%,-5.4,0.5,2.6
CC1(Oc2ccc(F)cc2)CCN(Cc2ccccc2OC(F)F)C1 (centres undefined),nt,0.2%,nt,2.4%,nt,nt,-0.3
Cn1c(SCC(=O)N2c3ccccc3Sc3ccccc32)nnc1-c1ccco1,-0.8,1.3%,-23.3%,-2.9%,17.1,-11.4,1.6
# The list continues:
SMILES,Menin MLL FP FL,ClpP mod,Sfp PPTase inh,PINK1 expr mod,TRPV1 PAM,TRPML1 blocker,TRPML1 ag
CCN(c1ccc(C)c(C)c1)S(=O)(=O)c1c(C)[nH]c(=O)[nH]c1=O,11.1,-0.1%,-5.8%,nt,0.1,8.8,0.0
CCC(C)(C(=O)NC1CCCCC1)N(Cc1ccco1)C(=O)Cc1cccs1 (centres undefined),4.7,0.1%,-6.2%,-1.6%,-9.2,0.5,-1.2
CCOC(=O)N1CCN(C(=O)c2ccc(N(Cc3ccccc3)S(C)(=O)=O)cc2)CC1,1.4,-2.6%,14.0%,4.3%[38.3 µM],3.6,-9.9,-0.6
CC12CCC(/C(=C/NNc3ccc([N+](=O)[O-])cc3[N+](=O)[O-])C1=O)C2(C)C (centres undefined),nt,1.3%,nt,?,nt,42.1,0.0
COc1ccc(NC(=O)CC2C(=O)N(c3cccc(OC)c3)C(=O)N2C2CCCCC2)cc1 (centres undefined),2.7,-2.4%,-7.9%,-5.5%[38.3 µM],19.5,-6.2,-0.4
COCCCNC(=O)CN(c1cc(Cl)cc(Cl)c1)S(C)(=O)=O,1.8,-0.2%,13.5%,0.7%[38.3 µM],-4.2,-6.7,0.1
O=C1N(Cc2cccnc2)C[C@@H]2C[C@@H](c3ccccc3C(F)(F)F)N3CCC[C@@]123,3.2,0.4%,3.6%,0.0%,-13.9,6.0,0.0
O=C(CCN1C(=O)c2ccccc2S1(=O)=O)Nc1nc2c(s1)CCCC2,0.7,0.6%,9.1%,?,1.6,-10.4,0.3
Cc1ccc(C)c(CN2CCCNC2=O)c1,4.3,-3.0%,50.1µM*,-2.4%[38.3 µM],6.3,10.6,2.3
COc1ccc2nc(NC(=O)C3=NN(c4ccccc4)C(=O)CC3)sc2c1,1.6,0.2%,9.2%,-0.3%,-9.0,-2.5,-0.8
O=C1c2cccc3cccc(c23)C(c2nc3ccccc3[nH]2)N1C1CC1 (centres undefined),nt,-17.9%,nt,-0.2%,nt,nt,0.7
COc1cnc(-c2ccccc2)nc1Oc1ccc(Cl)cc1C,-0.6,-2.4%,14.1%,-0.2%,-26.9,-19.4,3.4
CCCCCCc1c(C)c2c(cc(C)c3c(C)coc32)oc1=O,nt,-11.4%,nt,3.2%,nt,-4.3,0.8
